# Screening data from PubChem BioAssay.
# KCNQ2 block: KCNQ2 channel blockers in CHO-K1 cells – cell-based, FluxOR thallium flux, B-score, primary screen (AID 2156) | 310,000 tested, 1.1% active | B-score at 10 µM | O88943 | 20 min; stronger effect = lower value; only compounds with negative scores are shown here; some inactives read as strong as hits;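 active = fluorescence ratio B-score at most minus 3 library SDs, with starting brightness B-score within 2 library SDs, cut at about -5.5 in these data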
# Target sequence (O88943 whole entry, looked up): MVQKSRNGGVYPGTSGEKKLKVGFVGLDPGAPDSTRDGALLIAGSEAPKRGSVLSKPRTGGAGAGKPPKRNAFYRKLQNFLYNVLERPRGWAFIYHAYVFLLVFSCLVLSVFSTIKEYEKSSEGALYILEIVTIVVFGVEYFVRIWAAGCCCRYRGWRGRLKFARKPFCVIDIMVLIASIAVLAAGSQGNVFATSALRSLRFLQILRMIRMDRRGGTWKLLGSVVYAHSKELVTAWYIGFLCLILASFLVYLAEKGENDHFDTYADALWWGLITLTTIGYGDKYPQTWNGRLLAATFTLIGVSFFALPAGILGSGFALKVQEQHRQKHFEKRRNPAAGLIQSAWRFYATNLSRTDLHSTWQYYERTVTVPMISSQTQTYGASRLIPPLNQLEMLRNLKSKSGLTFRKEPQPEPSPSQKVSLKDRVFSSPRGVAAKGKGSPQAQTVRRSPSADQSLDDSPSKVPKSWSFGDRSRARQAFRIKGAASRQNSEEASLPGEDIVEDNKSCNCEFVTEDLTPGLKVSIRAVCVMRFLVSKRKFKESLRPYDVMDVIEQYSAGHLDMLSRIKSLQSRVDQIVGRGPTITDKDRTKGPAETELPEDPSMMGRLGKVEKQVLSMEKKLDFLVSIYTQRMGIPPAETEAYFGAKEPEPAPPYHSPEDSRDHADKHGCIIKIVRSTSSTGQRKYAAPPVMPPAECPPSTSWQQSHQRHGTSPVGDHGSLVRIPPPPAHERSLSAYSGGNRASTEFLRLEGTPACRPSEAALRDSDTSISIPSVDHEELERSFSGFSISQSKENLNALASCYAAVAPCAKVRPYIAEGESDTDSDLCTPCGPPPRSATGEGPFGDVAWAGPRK
# KCNQ2 block baseline: recorded beside KCNQ2 block, whose call it bears; B-score; measured here: initial fluorescence intensity artifact check;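 brightness before thallium and not channel activity; 0 = typical well and far values either way flag optical interference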
# Active calls of the source: *; i = inactive. These rows are one share of the data, so the mix of outcomes need not match the whole.
nr | structure | KCNQ2 block baseline | KCNQ2 block
1 | CC(C)(C)OC(=O)N1CCCC(C(=O)CC#N)C1 (stereo not drawn) | -0.15 | i
2 | Cc1cc(C)c(S(=O)(=O)Nc2ccc(Cl)cn2)c(C)c1 | 0.18 | i
3 | O=C(CN1CCCC1)Nc1ccc(Br)cc1[N+](=O)[O-] | 2.3 | i
4 | Cc1nnc(SCC(=O)Nc2ccccc2)[nH]c1=O | -0.03 | i
5 | O=C(Nc1ccc2c(c1)CCC2)Nc1ccc2c(c1)OCO2 | 1.8 | i
6 | O=C(CN(Cc1ccccc1)C(=O)c1csnn1)NCc1ccccc1 | -0.44 | i
7 | COc1cc(/C=C/CO)cc(OC)c1OC/C=C(\C)CCC=C(C)C | -0.07 | i
8 | CCOC(=O)N1CCN(C(c2ccc(C)cc2)c2sc3nc(C)nn3c2O)CC1 (stereo not drawn) | -0.45 | i
9 | COc1ccc(CN2C(=O)c3ccccc3C2OC)cc1 (stereo not drawn) | -0.21 | i
10 | Cc1ccc(F)c([C@H]2[C@H]3C=CC[C@@H](C)[C@@H]3C(=O)N2Cc2ccccc2)c1 | 1.7 | i
11 | CCOC(=O)c1sc(NC(=O)CSc2n[nH]c(-c3ccccc3)n2)c(C#N)c1C | 1.2 | i
12 | O=C1CCCC2=C1C(c1ccccc1)n1c(s/c(=C/c3cccc(F)c3)c1=O)=N2 (stereo not drawn) | 0.42 | i
13 | Cc1ccccc1NC(=S)N(CCN1CCCCCC1)Cc1cccs1 | -0.33 | i
14 | Cc1ccc(S(=O)(=O)N(CC(=O)N/N=C/c2ccco2)c2cc(Cl)cc(Cl)c2)cc1 | -1.4 | i
15 | CN1CCc2c(sc(NC(=O)Cc3ccc(F)cc3)c2C(N)=O)C1 | -0.53 | i
16 | COc1ccc(C(=O)NC(Oc2ccccc2)C(Cl)(Cl)Cl)cc1 (stereo not drawn) | 0.39 | i
17 | CCOC(=O)CC(=O)CSc1nc(-c2cccnc2)ccc1C#N | 0.46 | i
18 | Cc1nn(S(=O)(=O)c2ccc(Br)cc2)c(C)c1S(=O)(=O)N1CCOCC1 | -1.5 | i
19 | COc1ccc(NC(=O)Cn2nnc(-c3ccccc3NS(=O)(=O)c3ccccc3)n2)cc1 | -1.5 | i
20 | O=C(O)c1ccc(NC(=O)c2cn(-c3ccccc3)nc2-c2ccc(F)cc2)cc1 | -2.1 | i

# Sorted by length of the SMILES (smallest number first): part of the list above
nr | structure | KCNQ2 block baseline | KCNQ2 block
4 | Cc1nnc(SCC(=O)Nc2ccccc2)[nH]c1=O | -0.03 | i
13 | Cc1ccccc1NC(=S)N(CCN1CCCCCC1)Cc1cccs1 | -0.33 | i
3 | O=C(CN1CCCC1)Nc1ccc(Br)cc1[N+](=O)[O-] | 2.3 | i

# Next section.
nr | structure | KCNQ2 block baseline | KCNQ2 block
21 | Cc1c(N=Cc2c(O)n(Cc3ccco3)c(=O)c3ccccc23)c(=O)n(-c2ccccc2)n1C | 3.4 | i
22 | Clc1ccc(-c2nn3c(-c4ccccc4)nnc3s2)cc1 | 4 | i
23 | Cc1ccc(-n2nnnc2CNC(=O)C2CC(=O)N(c3ccc(F)cc3)C2)cc1C (stereo not drawn) | 0.77 | i
24 | Cc1ccc(CNC(=O)c2cc(-c3ccccc3)nn2CC2CC(c3cccc([N+](=O)[O-])c3)=NO2)cc1 (stereo not drawn) | -1.7 | i
25 | Cc1ccc(NC(=O)Nc2ccc(Cl)cc2)c(Br)c1 | -1.2 | i
26 | Cc1cc(=O)n2nc(N3CCC(C(=O)Nc4cccc(Cl)c4C)CC3)sc2n1 | 1.2 | i
27 | Cc1ccc(-c2nc(Nc3cccc(O)c3)c3ccccc3n2)cc1 | 2.7 | i
28 | O=C(CSc1nnc(-c2ccc(F)cc2)o1)N1CCCC1 | -0.4 | i
29 | O=C(COC(=O)COc1ccccc1F)Nc1ccc(Cl)cn1 | 1 | i
30 | COc1ccc(S(=O)(=O)N2CCC(C(=O)NCCCc3ccccc3)CC2)cc1 | -0.81 | i
31 | CCn1c(=O)n(CC)c2cc(N3CCCC3)c(NC(=O)c3cccc(Cl)c3)cc21 | 0.12 | i
32 | COc1cc(/C=C/C(=O)c2cccc([N+](=O)[O-])c2)cc(OC)c1OC | -0.16 | i
33 | COc1ccc(CN2C(=O)CN=C2Nc2cccc(C)c2C)cc1 | -1.2 | i
34 | Cc1nn(S(=O)(=O)N2CCCCC2)c(C)c1Br | 2.8 | i
35 | O=C(c1ccccc1)c1ccc2nc(-c3ccco3)c(-c3ccco3)nc2c1 | -2.5* | -7.7*
36 | COc1ccc(C(=O)C2CCN(C(=O)Nc3ccc(C)cc3)CC2)cc1 | 0.72 | i
37 | COc1ccc(N(Cc2ccccc2)N=O)cc1 | 1.6 | i
38 | O=C(O)c1ccc2oc(=O)c(S(=O)(=O)c3ccccc3)cc2c1 | -2.7 | i
39 | O=S(=O)(c1cnccc1N1CCN(CCO)CC1)N1CCCCC1 | -0.2 | i
40 | O=C(C1=C(O)C(=O)N(Cc2ccco2)C1c1cccnc1)c1cc2ccccc2o1 (stereo not drawn) | -0.01 | i

# Excerpt: entries 35 to 37
nr | structure | KCNQ2 block baseline | KCNQ2 block
35 | O=C(c1ccccc1)c1ccc2nc(-c3ccco3)c(-c3ccco3)nc2c1 | -2.5* | -7.7*
36 | COc1ccc(C(=O)C2CCN(C(=O)Nc3ccc(C)cc3)CC2)cc1 | 0.72 | i
37 | COc1ccc(N(Cc2ccccc2)N=O)cc1 | 1.6 | i

# Remaining list, next part.
nr | structure | KCNQ2 block baseline | KCNQ2 block
41 | COc1ccc(NC(=O)Nc2ccc(OCc3ccccc3)cc2)cn1 | 1 | i
42 | Cc1onc(C(=O)NN)c1-c1csc(COc2ccccc2)n1 | 0.3 | i
43 | CSc1ccccc1NC(=O)c1cccc(S(=O)(=O)N2CCN(C)CC2)c1 | -0.95 | i
44 | COc1ccccc1C(=O)NNC(=O)C1CC=CCC1 (stereo not drawn) | -0.95 | i
45 | CC(C)(C)c1nnc2sc(SCC(=O)c3ccc(Cl)cc3)nn2c1=O | -0.03 | i
46 | CC(=O)c1ccccc1OCC(O)Cn1ccnc1 (stereo not drawn) | 1.6 | i
47 | Cc1ccc(C(=S)N2CCCCCC2)cc1 | 1.2 | i
48 | C[C@H](NC(=O)c1cc2cc(Cl)ccc2n1C)C(=O)N1CCC[C@H]1C(=O)O | -0.55 | i
49 | CN(CC(=O)NCCc1ccccc1)S(=O)(=O)c1ccccc1 | 1.1 | i
50 | Cn1c(NCc2cccs2)nc2ccccc21 | 1.1 | i
51 | CCc1cc2ccc(C)cc2nc1SCC(=O)Nc1c[nH]c(=O)[nH]c1=O | -1.2 | i
52 | O=C(c1ccccc1)N(Cc1ccccc1)Cc1ccccc1 | -1.5* | -6.3*
53 | CC(OC(=O)c1ccccc1NCCO)C(=O)NC1CCCCC1C (stereo not drawn) | -1.2 | i
54 | CCCNc1nc(C)cc(-c2cc(C(=O)NC3CCCC3)on2)n1 | 0.47 | i
55 | CNC(=O)c1cc2c(ccc3ccccc32)oc1=N | 0.04 | i
56 | CCN(CC)c1ccc(/C=N/Nc2cccc(C)c2)c(O)c1 | 0.35 | i
57 | CC1CCCN(c2ccc(/C=C(\C#N)c3nn(-c4ccccc4)c(N)c3C#N)cc2[N+](=O)[O-])C1 (stereo not drawn) | -2.8 | i
58 | Cc1ccc(-c2ccc(/C=N/n3cnnc3)o2)cc1 | 0.09 | i
59 | O=C1c2ccccc2NC(c2cccc([N+](=O)[O-])c2)N1CCc1ccccc1 (stereo not drawn) | 0.82 | i
60 | O=C(COC(=O)C1(c2ccc(Cl)cc2)CCCC1)N1CCc2ccccc21 | 0.16* | -7.3*

# Entries shown so far that contain a tert-butyl group (2):
nr | structure | KCNQ2 block baseline | KCNQ2 block
1 | CC(C)(C)OC(=O)N1CCCC(C(=O)CC#N)C1 (stereo not drawn) | -0.15 | i
45 | CC(C)(C)c1nnc2sc(SCC(=O)c3ccc(Cl)cc3)nn2c1=O | -0.03 | i

# Further structures:
nr | structure | KCNQ2 block baseline | KCNQ2 block
61 | Cc1c(Cl)cccc1NC(=O)c1cc(C2CC2)on1 | 0.74 | i
62 | COc1ccc2c(c1)nc(SCC(C)O)n2C (stereo not drawn) | -0.48 | i
63 | Cc1ccc(NCCC(=O)c2cccs2)cc1Cl | 1.5 | i
64 | C=CCOc1ccc(CNCc2cccnc2)cc1OCC | 0.93 | i
65 | Cc1ccccc1-c1nc(CS(=O)(=O)CC(=O)Nc2cc(F)ccc2F)c(C)o1 | -0.66 | i
66 | Cc1cc([N+](=O)[O-])nn1CC(=O)N(C)C1CCCCC1 | 0.72 | i
67 | CCCN(CC(=O)Nc1cccc(S(N)(=O)=O)c1)CC(=O)Nc1ccc(F)c(F)c1F | -0.3 | i
68 | COc1ccc2c(C)cc3nnnn3c2c1 | -1.5 | i
69 | CC12CCC(=O)N1C(C(=O)Nc1nc(-c3ccc(F)cc3)cs1)CS2 (stereo not drawn) | 0.4 | i

# Entries of single compounds from above:
# Entry for Cc1ccc(-c2ccc(/C=N/n3cnnc3)o2)cc1 → KCNQ2 block baseline = 0.09; KCNQ2 block = i
# Entry for O=C1CCCC2=C1C(c1ccccc1)n1c(s/c(=C/c3cccc(F)c3)c1=O)=N2 (stereo not drawn) → KCNQ2 block baseline = 0.42; KCNQ2 block = i
